BasE inh: inhibitors of Acinetobacter baumannii siderophore enzyme BasE; purified BasE, fluorescence polarization binding displacement; inhibition, % (concentration not given with the values); actives 0.1% (n = 84,000); AID 485350;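 active means both replicates above 25% with normal brightness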;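 further: 0% = negative plate control signal and 100% = positive plate control signal; stock transfer was 100 nL into about 30 µL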
KSHV LANA nucl: LANA-nucleosome interaction inhibition; FITC-LANA1-23 / chicken nucleosome fluorescence polarization; hits give low values; z-score (no concentration beside the values); actives 0.3% (n = 51,000); AID 720717;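 active means both repeat wells score below -2 in polarization z-score versus plate sample wells, excluding overly bright wells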;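 further: 100 nL library stock added to about 30 µL; numbers are from one replicate; some results filed as inactive read as strong as hits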
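Assay system: purified chicken nucleosomes with FITC-labelled LANA N-terminal peptide (1-23) / Probe or stimulus: 50 nM FITC-LANA1-23 probe / Compound dosing: pin-transferred compound, 100 nL / Times: compound with peptide–nucleosome mix 10–45 min at room temperature / Technique: fluorescence polarization, 480 nm excitation, 535 nm parallel and perpendicular emission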
An asterisk follows results filed as active; · = no result given; & = joins results of further samples. These rows are one share of the data; rates above refer to the full screens.

SMILES	BasE inh	KSHV LANA nucl
CCn1c(O)c(C2=NC(=S)NC2=O)c2ccccc21	0.4	·
c1ccc(-c2[nH]nc(-c3ccc4c(c3)OCO4)c2-c2nc3ccccc3[nH]2)cc1	1.4	·
COc1cc(NC(=O)COc2ccccc2F)cc(OC)c1OC	-5.3	2
Cc1ccc(NC(=O)CN(C)c2ccc(C(F)(F)F)cn2)cc1	1.3	·
O=C(O)c1ccccc1O	-1.4	0.21&-1
Cc1cc(-c2ccc(C)c(S(=O)(=O)N3CCC(c4ccccc4)C3)c2)on1 (stereo unspecified)	-1.0	-0.17
CN1C(=S)NC(C)(C)CC1(C)O (stereo unspecified)	-0.3	1.5
CN(C)C(=S)Cc1ccc(Cl)cc1	1.3	-0.44
CNS(=O)(=O)Cc1ccccc1CN	2.8	·
Cc1nn(C(=O)C2CCCN2S(=O)(=O)c2ccccc2)c(C)c1Sc1ccccc1 (stereo unspecified)	2.3	·
CCOC(=O)c1c(NC(=O)CSc2cc(C)c3ccccc3n2)sc2c1CCC2	-1.3	·
N#CC1(C(=O)OCC(=O)N2CCN(C(=O)COC(=O)C3(C#N)CCCC3)CC2)CCCC1	2.0	·
C=CCNC(=O)CN1CCC(C(O)(c2ccccc2)c2ccccc2)CC1	2.6	·
C[C@H](c1ccccc1)N1C(=O)CC[C@H]2CC(=O)CC[C@@H]21	·	0.33
CC1(C)Cc2cccc(OCC(=O)Nc3ccc(OCC(N)=O)cc3)c2O1	0.2	-1.2
CCOC(=O)Cc1csc(NS(=O)(=O)c2cn(C)cn2)n1	-4.6	·
Cc1ccc(CN2CCCC(CO)C2)cc1 (stereo unspecified)	1.1	-0.62
COc1ccccc1Oc1c(NS(=O)(=O)c2ccc(C(C)(C)C)cc2)nc(-c2ncccn2)nc1OCCO	·	-0.045
Cc1[nH]n(-c2nc3ccccc3s2)c(=O)c1C	-0.9	-1.1
O=C(O)CN1Cc2ccccc2C1	-0.5	0.36
O=C(CN=C1NS(=O)(=O)c2ccccc21)OCC(=O)c1ccccc1	2.3	·
CCCNC(=O)NCc1ccc(N2CCCC2=O)cc1	1.7	-1.1
CCc1nnc(NC(=O)C2=CN3CCS(=O)(=O)N=C3C=C2)s1	0.4	·
COc1ccccc1NC(=O)Cc1noc(CN(C)Cc2cccs2)n1	1.6	·
O=C(Cn1ncn2nc(-c3ccccc3)cc2c1=O)NCC1CCCO1 (stereo unspecified)	1.8	-0.3

The list continues:
SMILES	BasE inh	KSHV LANA nucl
Cc1ccc(NS(=O)(=O)c2cccc(C(=O)NN3CCOCC3)c2)cc1	1.3	·
CCOC(=O)C1CCN(/C=C(\C#N)S(=O)(=O)c2ccccc2)CC1	-1.9	·
c1ccc(Nc2ccccc2)cc1	3.1	·
C1CCOC(CN2CCCC2)OC1	-1.8	-0.27
CCCc1nc(NCc2ccccc2)c(C#N)c2c1CCCC2	-2.2	·
Cn1c(O)c(C=NCC2CCN(C(=S)Nc3ccccc3)CC2)c(=O)n(C)c1=O	1.5	0.16
CC(Oc1ccc(C(C)(C)C)cc1)C(N)=O (stereo unspecified)	0.0	-0.28
CC(=O)N(Cc1ccccc1)C1CCCc2c1[nH]c1ccc(C)cc21 (stereo unspecified)	-1.5	·
O=C(CN1C(=O)c2ccccc2C1=O)Nc1ccc(S(=O)(=O)Nc2nccs2)cc1	0.6	0.11
Cc1c2ccc(=O)ccc2c(C)n1C	2.3	0.16
O=C(NCc1ccco1)/C(=C\c1ccc(Br)cc1)NC(=O)c1ccccc1	2.4	-0.92
Cn1ccc(NC(=O)/C(C#N)=C/c2ccc(Cl)cc2)n1	2.8	0.074
CN(C)S(=O)(=O)c1ccc2oc(NN)nc2c1	1.4	·
COc1ccc(OCCSc2nc3ccccc3s2)cc1	3.5	·
O=C1c2ccccc2C(=O)N1COc1cccc2cccnc12	2.5	0.78
O=C(NCc1cccs1)c1cc(-c2ccccc2)oc1C(F)(F)F	0.9	·
CCOc1ccccc1NC(=O)C1CCN(c2ncccn2)CC1	-2.5	3.1
CCc1cccc2c(C(=O)CSc3nnnn3C3CCCC3)c[nH]c12	-1.9	·
CC1CCN(S(=O)(=O)c2cc(Br)ccc2Br)CC1	1.4	·
S=c1nccc(-c2ccccc2)[nH]1	0.3	·
Cn1c(/C=C/C=C/N2CCCC2)nc2ccccc2c1=O	-0.9	·
Cc1nn(-c2ccccc2)nc1C(=O)ONC(=O)c1ccccc1	-2.6	1.6
CCCNc1c(NC(=O)c2ccc3c(c2)OCO3)c(=O)oc2ccccc12	-1.5	0.3
Cn1c(=O)c2c(ncn2CCCCn2cnc3c2c(=O)n(C)c(=O)n3C)n(C)c1=O	1.2	·
c1ccc(CCn2c(SCc3nnc(-c4ccccc4)o3)nc3ccccc32)cc1	-2.2	·

Pulled by structure from the entries so far:
SMILES	BasE inh	KSHV LANA nucl
O=C(O)CN1Cc2ccccc2C1	-0.5	0.36
C=CCNC(=O)CN1CCC(C(O)(c2ccccc2)c2ccccc2)CC1	2.6	·
Cc1nn(-c2ccccc2)nc1C(=O)ONC(=O)c1ccccc1	-2.6	1.6
CN(C)S(=O)(=O)c1ccc2oc(NN)nc2c1	1.4	·

Other structures
SMILES	BasE inh	KSHV LANA nucl
Cn1nnnc1SCC(=O)CSc1nnnn1C	1.4	·
O=C1c2cccc3cccc(c23)N1C(=O)C1CCCCC1	-3.4	2
CSc1nc(-c2ccccc2)ccc1C(N)=O	2.2	-0.35
CN(C)CCNc1cc(-c2cccnc2)nc2ccccc12	-2.0	·
N#CCC(=O)NN=C1CCCCCCCCCCC1	4.1	0.53
CCOC(=O)C(C)Oc1cccc2c(=O)n(CC(=O)NC3CCCCC3)ccc12 (stereo unspecified)	-0.9	-0.35
CC(=O)NC1c2ccccc2Oc2ccccc21	-3.1	-0.07
CC(C)Sc1ccc2nnc(-c3cccnc3)n2n1	0.9	-0.85
CC(=O)N(Cc1nc(-c2ccccc2)no1)C1CCCCC1	-2.0	1.5
CC12CCCCN1CCCc1c2[nH]c2ccccc12 (stereo unspecified)	-2.9	0.74
O=S1(=O)CC(c2ccccc2)CS(=O)(=O)C12CCCC2	-0.2	-0.057
O=S(=O)(/N=C(/NC(=S)OC1CCCCC1)c1ccccc1)c1ccccc1	-1.3	·
O=C(CSc1nnc(OC(=O)c2cccs2)n1C1CC1)c1ccc2c(c1)OCCO2	-0.9	·
Cc1cc(C(=O)NCC2COc3ccccc3O2)c2ccccc2n1 (stereo unspecified)	1.6	·
Cc1oc(-c2ccccc2)nc1C(=O)Nc1ccccc1C(=O)NC1CC1	0.8	·
COc1cc(S(=O)(=O)N2CCN(c3cc(C)ccc3C)CC2)c(OC)cc1Cl	2.2	-1.4
CCn1cc(C(CC(=O)O)C(=O)O)c2ccccc21 (stereo unspecified)	-1.1	0.2
C=C(C)CN(CC)Cc1cc(OC)cc(OC)c1	0.6	-0.8
Cc1ccc(CCNC(=O)C2CCN(c3nnc(-n4cccc4)s3)CC2)cc1	0.3	-0.39
O=C(NCC1CC1)c1ccccc1NS(=O)(=O)c1ccc(F)cc1F	2.8	·
CCC1(C)CC(CCN2C(=O)c3ccccc3C2=O)(c2ccc(C)cc2)CCO1 (stereo unspecified)	-3.1	·
Nc1c(C(=O)NCc2ccco2)nnn1-c1ccc(Cl)cc1	2.5	0.66
Cc1ccc(C)c(NC(=O)CSC2=NC3C(=O)N(C)C(=O)N(C)C3N2C)c1 (stereo unspecified)	0.5	1.6
COc1ccccc1NC(=O)/C(C#N)=C/c1cn(C)c2ccccc12	1.4	0.25
C/C(=N/O)c1ccc2c(c1)OCCO2	-0.8	-0.48

Part of the list above in order of number of heavy atoms, rising:
SMILES	BasE inh	KSHV LANA nucl
C/C(=N/O)c1ccc2c(c1)OCCO2	-0.8	-0.48
CC(=O)NC1c2ccccc2Oc2ccccc21	-3.1	-0.07
CCn1cc(C(CC(=O)O)C(=O)O)c2ccccc21 (stereo unspecified)	-1.1	0.2
Nc1c(C(=O)NCc2ccco2)nnn1-c1ccc(Cl)cc1	2.5	0.66
COc1ccccc1NC(=O)/C(C#N)=C/c1cn(C)c2ccccc12	1.4	0.25
O=S(=O)(/N=C(/NC(=S)OC1CCCCC1)c1ccccc1)c1ccccc1	-1.3	·
CCOC(=O)C(C)Oc1cccc2c(=O)n(CC(=O)NC3CCCCC3)ccc12 (stereo unspecified)	-0.9	-0.35

(further entries)
SMILES	BasE inh	KSHV LANA nucl
C=CCN1CCN(Cc2nnnn2Cc2ccc(OC)cc2)CC1	-2.7	2.8
CCN(CC)c1ccc(/C=N/NC(=O)c2ccccc2)cc1	-2.5	-0.39
CCOC(=O)Cn1c(=N)n(Cc2ccc(Cl)c(Cl)c2)c2ccccc21	-9.4	·
Cc1cc(C)n(C2CC(=O)N(N(C)C)C2=O)n1 (stereo unspecified)	-0.8	0.052
CCCC(=O)N1CCN(c2ccc(NC(=S)NC(C)=O)cc2Cl)CC1	-1.5	-0.68
Cc1nn(Cc2ccccc2Cl)c2sc(C(=O)NC3CC3)cc12	-1.8	·
c1ccc2c(c1)CCN2c1nn2nnnc2c2ccccc12	-2.9	·
CC(C)C(=O)Nc1ccccc1-c1nc2ccccc2[nH]c1=O	1.2	0.43
N=C1C(c2nc3ccccc3s2)=C(O)CN1/N=C1\C(=O)Nc2ccccc21	2.9	·
O=c1c2ccccc2n(Cc2ccc(Cl)cc2)c(=O)n1Cc1ccc(Cl)cc1	2.3	·
CC1Cn2cc(C(=O)N3CCCc4ccccc43)c(=O)c3c(Cl)ccc(c32)O1 (stereo unspecified)	-2.0	-0.85
CC(NC(=O)CN(C)Cc1cccc(F)c1)c1ccccc1 (stereo unspecified)	4.1	·
Cc1cc(/C=C(\C#N)C(=O)OCN2C(=O)c3ccccc3C2=O)c(C)n1CC(C)C	1.6	·
CN(C(=O)CSc1nc2ccccc2c(=O)n1C)c1ccccc1	0.7	-0.41
O=C(Nc1cccc(Cl)c1)N1CCN(CCc2ccccc2)CC1	-3.8	0.85
O=c1cc(CN2CCCC2)nc(-c2cc(C(F)(F)F)cc(C(F)(F)F)c2)[nH]1	·	-0.18
O=C(CN1CCc2ccccc21)NN1CC(=O)N(c2ccccc2)CC1=O	0.6	-0.4
CCCc1cc(=O)[nH]c(/N=C(/NC(=O)C(C)N2C(=O)c3ccccc3C2=O)Nc2ccccc2)n1 (stereo unspecified)	2.3	1.2
CCO/C=N/Nc1nc(C(F)(F)F)nc2c1cnn2-c1ccccc1	1.1	·
COc1ccc(C2C(C#N)=C(N)N3CCc4cc(OC)c(OC)cc4C3=C2C#N)cc1 (stereo unspecified)	-8.8	·
FC(F)(F)COc1nc(OCC(F)(F)F)nc(OCC(F)(F)F)n1	-1.6	0.87
Cc1cc2nc3c(c(C(F)(F)F)n2n1)CCc1ccccc1-3	0.3	0.62
CCOC(=O)NC(=S)Nc1cccc(C)n1	1.8	·
O=C(NC(=O)c1c(F)cccc1F)O/N=C1\CCCc2occc21	1.6	0.58
CCc1ccc(Nc2ncnc3nc[nH]c23)cc1	-0.1	0.69

(listing goes on)
SMILES	BasE inh	KSHV LANA nucl
CCCc1ncc(C[n+]2ccccc2C)c(N)n1	-3.7&3.0	0.23&2.4&-0.6
CCN(CC(=O)Nc1ccc2c(c1)OCCO2)Cc1cc(=O)oc2cc(C)c(C)cc12	2.1	·
CC1=C(C#N)C(c2cccnc2)C2=C(N1)c1ccccc1C2=O (stereo unspecified)	1.0	·
CC1C/C(=N\O)c2cc(Cl)ccc2S1(=O)=O (stereo unspecified)	0.3	0.55
C=CCn1c(SCC(N)=O)nnc1-c1ccc(OC)c(OC)c1	0.3	1
O=C(Nc1ccc(F)cc1F)c1ccc(COc2c(F)c(F)cc(F)c2F)o1	-2.0	2.3
CCOC(=O)C1CCN(/C=C(\C#N)S(=O)(=O)C(C)(C)C)CC1	-2.0	·
COc1cccc(C(=O)N(Cc2cccnc2)Cc2cc3ccccc3[nH]c2=O)c1	-0.7	-1.1
CCC(=O)NC(Cc1ccccc1)c1nc2ccccc2[nH]1 (stereo unspecified)	1.2	0.078
C=CCNc1nc(-c2cc(C)n(C3CC3)c2C)cs1	3.2	·
COC(=O)CCS(=O)(=O)c1ccc(C)cc1	-0.6	-0.47
COc1ccc(-c2cc(C(F)(F)F)nc(NC3CCCC3)n2)cc1	0.0	-0.081
COc1ccccc1CNN	-1.4	0.61
CC1=NN(c2ccc(C(=O)O)cc2)C(=O)CC1	-1.0	-0.75
OCCNC(=S)NC1CC1	3.0	-0.071
CCOC(=O)COc1cc2c3c(c(=O)oc2cc1C)CCCC3	2.0	-1.2
CCOC(=O)c1c(NC(=O)CSc2nnnn2C)sc(C(=O)N(C)C)c1C	1.8	·
O=C1CN(CC(=O)NC2CCCc3ccccc32)CCN1 (stereo unspecified)	0.3	·
CC1=CCC2(C(=O)OC(C)(C)OC2=O)C(c2ccc(Br)cc2)C1 (stereo unspecified)	3.2	·
Cn1cccc/c1=N/c1cccc[n+]1C	0.0	·
Cn1c(SC/C(O)=C(\C#N)c2nc3ccccc3[nH]2)nc2ccccc21	-4.0	·
CCOc1ccc2[nH]c(=O)c(CN(C(=S)NCc3ccco3)C3CCCC3)cc2c1	-1.6	0.25
Cc1ccc(Cn2cnc3cc(C)c(C)cc32)cc1	-4.0	-0.65
Cn1c(=O)n(CCCOc2ccc(Cl)cc2)c2ccccc21	-0.6	0.88
CC1CN/C(=C/C(=O)c2ccc(Br)cc2)C(=O)N1 (stereo unspecified)	2.1	0.45
CN1CCN(Cc2c(O)ccc3c(=O)c(Oc4ccccc4Cl)c(C(F)(F)F)oc23)CC1	1.2	0.036

Reformatted as labelled records: 2 of the compounds above
Cn1c(/C=C/C=C/N2CCCC2)nc2ccccc2c1=O
  BasE inh = -0.9; KSHV LANA nucl = ·

Cc1nn(-c2ccccc2)nc1C(=O)ONC(=O)c1ccccc1
  BasE inh = -2.6; KSHV LANA nucl = 1.6
